# Assay outcomes as filed in PubChem BioAssay.
# rRNA inh HTS: inhibitors of bacterial rRNA selective over humanized ribosomes. E. coli WT GFP vs humanized-ribosome RFP mutants, fluorescence, 24 h; active compounds read low; DMSO median 0, no signal -100. GFP signal change (wild-type ribosome), % (no concentration beside the values). 1.6% of 350,000 active. AID 720706;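 active = significant combined selectivity score with lowered wild-type GFP, culture density cut under 30%, mutant RFP and density less affected; inactive = any of these conditions unmet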; also: one replicate is shown; some compounds called inactive have numbers as strong as hits
# rRNA inh HTS OD600: recorded beside rRNA inh HTS, whose call it bears; OD600 change, %; measured here: OD600 growth;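 optical density of the mix in the first replicate; 0 = DMSO median and -100 = no signal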
# rRNA inh HTS RFP: also measured in rRNA inh HTS; calls as there; RFP signal change, %; measured here: RFP humanized mutant strains;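 first replicate; 0 = DMSO median and -100 = no signal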
# * hit, by the source's call; & = joins results of further samples. The list is partial. The share of hits here may be higher or lower than overall.
SMILES,rRNA inh HTS,rRNA inh HTS OD600,rRNA inh HTS RFP
CCOC(=O)C1=C[C@@H](CC)N(S(=O)(=O)c2ccc(C)cc2)[C@H]1c1cccs1,4,0,1.3
CC=Cc1ccc2n(c1=O)C[C@@H]1[C@@H](CO)[C@H](C(=O)N3CCOCC3)[C@H]2N1CC1CC1 (mixture of isomers),2,2,-1.4
CO[C@H]1CN(C)C(=O)c2ccc(NC(=O)c3cc(C)on3)cc2OC[C@@H](C)N(CC2CC2)C[C@@H]1C,2,2,-2.5
CN(C)C(=O)c1cccc(-c2ccccc2[C@H]2[C@H](C#N)N(C(=O)C3CCCCC3)[C@H]2CO)c1,4,8,2.4
CC(C)NC(=O)N[C@@H]1CC[C@H](CC(=O)N2CCCCC2)O[C@H]1CO,2,7,-1.4
CNc1nc(NCCOc2ccccc2Cl)c2sccc2n1,-64,-81,-23
COc1ccc(S(=O)(=O)Nc2ccc3c(c2)CC(=O)N([C@H](C)CO)C[C@H](C)[C@H](CN(C)CC2CCCCC2)O3)cc1,1,8,-0.5
Cc1noc(C)c1S(=O)(=O)Nc1cccc2c1O[C@@H](CN(C)CC1CC1)[C@@H](C)CN([C@H](C)CO)C2=O,4,9,-0.5
O=C(C[C@H]1C[C@@H]2c3cc(NC(=O)c4ccc5c(c4)OCO5)ccc3O[C@@H]2[C@@H](CO)O1)NCCc1ccccc1,-5,-8,5.7
CCCCN(C=O)c1c(CC)nc2ccc(C(=O)N3CCN(C(=O)c4ccco4)CC3)cn12,11,9,-1.6
O=C(NC1Cc2ccccc2C1)[C@H]1[C@H](CO)[C@H]2Cn3c(ccc(-c4ccccc4F)c3=O)[C@@H]1N2,-1,-7,0.1
C[C@@H]1CN([C@H](C)CO)S(=O)(=O)c2ccc(-c3cncnc3)cc2O[C@H]1CN(C)Cc1ccncc1,-2,-3,-0.4
Cc1ccc(S(=O)(=O)N(C)C[C@@H]2OCCCC[C@@H](C)Oc3ccc(N(C)C)cc3C(=O)N([C@@H](C)CO)C[C@@H]2C)cc1,-3,-4,-3.5
C[C@@H]1CCCCO[C@@H](CN(C)CC2CCCCC2)[C@@H](C)CN([C@H](C)CO)C(=O)c2cc(NC(=O)Nc3ccc(C(F)(F)F)cc3)ccc2O1,-3,14,1.1
C/C=C/c1ccc2c(c1)O[C@@H](CN(C)C)[C@@H](C)CN([C@@H](C)CO)S2(=O)=O,1,-3,1.4
COc1ccc(NC(=O)Nc2ccc3c(c2)C(=O)N([C@H](C)CO)C[C@H](C)[C@H](CN(C)CC2CC2)OCCCC[C@H](C)O3)cc1,1,-4,-1.6
CCCC#Cc1cnc2c(c1)C(=O)N([C@@H](C)CO)C[C@@H](C)[C@H](CN(C)S(=O)(=O)c1cn(C)cn1)O2,4,-3,-3.3
CC(C)(C)C(=O)c1c(N)[nH]c(C(=O)c2ccccc2)c1-c1ccc(Br)cc1,-33,-52,42
O=C(c1ccc2c(c1)OCO2)N1C[C@H]2[C@@H](c3ccccc31)[C@H](CO)N2Cc1ccccc1Cl,-11,-42,13
COc1ccc(NC(=O)Nc2ccc3c(c2)C(=O)N([C@H](C)CO)C[C@@H](C)[C@@H](CN(C)Cc2ccc(C(=O)Nc4ccccc4N)cc2)O3)cc1,1,-3,2.1
COc1ccc(S(=O)(=O)Nc2ccc3c(c2)C(=O)N([C@@H](C)CO)C[C@H](C)[C@@H](CN(C)S(=O)(=O)c2c(C)noc2C)OCCCC[C@@H](C)O3)cc1,1,-4,-2.6
C[C@H]1CN([C@@H](C)CO)C(=O)c2cc(NC(=O)Nc3ccc(C(F)(F)F)cc3)ccc2O[C@@H]1CN(C)C(=O)Nc1ccc2c(c1)OCO2,2,1,0.7
COCC(=O)N1C[C@@H](C)[C@H](OC)CN(C)C(=O)c2cc(NC(=O)Nc3ccccc3)ccc2OC[C@H]1C,-1,-7,0.9
CCCCN(C)C(=O)c1sc(=O)n(Cc2cc(Cl)ccc2OC)c1C,-23,-24,-3.6
CCCNC(=O)N(C)C[C@H]1Oc2cc(C#CCN(C)C)ccc2S(=O)(=O)N([C@H](C)CO)C[C@H]1C,0,0,0.7
# Following part.
SMILES,rRNA inh HTS,rRNA inh HTS OD600,rRNA inh HTS RFP
C[C@H](O)[C@@H]1C(=O)N2CCc3c([nH]c4c(-c5ccccc5)cccc34)[C@@H]2C[C@@H]1N(C)C(=O)/C=C/c1ccccc1,24,6,8.0
O=C(N[C@H]1CC[C@@H](CCNC(=O)C2CCCCC2)O[C@H]1CO)c1ccncc1,-2,-6,-1.2
CCOC(=O)C1(C)CCN1C(=O)COc1ccccc1 (stereo unspecified),10,9,-1.4
CO[C@H]1CN(C)C(=O)c2cc(NC(=O)NC3CCCCC3)ccc2OC[C@H](C)N(CC2CCOCC2)C[C@H]1C,1,-1,-1.5
C[C@@H]1CCCCO[C@H](CN(C)C(=O)Nc2ccc(F)cc2)[C@H](C)CN([C@H](C)CO)C(=O)c2cc(NC(=O)CCC(F)(F)F)ccc2O1,0,-2,-1.3
COc1ccc(CN(C)C[C@H]2OCCCC[C@H](C)Oc3ccc(NS(=O)(=O)c4cccs4)cc3C(=O)N([C@@H](C)CO)C[C@@H]2C)cc1,-2,-7,-0.7
CN(C)C(=O)c1cccc(-c2ccc([C@@H]3[C@H]4CN(CCC(F)(F)F)CCCCN4[C@H]3CO)cc2)c1,8,27,8.8
CC(C)CC#Cc1ccc2c(c1)O[C@H](CN(C)C)[C@@H](C)CN([C@H](C)CO)S2(=O)=O,-2,-5,-3.0
CCOC(=O)N1CCN(C(=O)C[C@H]2C[C@@]3(C(=O)OC)C(=C[C@H](C4CCCC4)O[C@@H]3C)N(Cc3ccccc3)C2=O)CC1,-4,-7,1.0
Cc1ccc(S(=O)(=O)Nc2ccc3c(c2)C(=O)N([C@@H](C)CO)C[C@@H](C)[C@H](CN(C)Cc2ccc(Oc4ccccc4)cc2)O3)cc1,0,-10,0.0
C[C@H]1CN([C@@H](C)CO)C(=O)c2ccccc2-c2ccccc2CO[C@H]1CN(C)C(=O)Nc1ccccc1C(F)(F)F,-2,-5,0.2
COc1ccc(-c2ccc3n(c2=O)C[C@H]2[C@H](CO)[C@@H](C(=O)N(C)C)[C@@H]3N2Cc2cccnc2)cc1,-1,5,0.2
Cc1noc(C)c1NC(=O)N(C)C[C@H]1Oc2c(cccc2N(C)C)C(=O)N([C@@H](C)CO)C[C@H]1C,0,2,-2.4
C[C@@H]1CN([C@@H](C)CO)C(=O)c2cc(NC(=O)Nc3ccc(F)cc3)ccc2O[C@H]1CN(C)S(=O)(=O)c1ccccc1,-5,-5,-0.1
CC(C)NC(=O)N[C@H]1CC[C@@H](CC(=O)NCc2ccc(Oc3ccccc3)cc2)O[C@@H]1CO,0,-3,0.1
C[C@@H]1CN([C@@H](C)CO)C(=O)c2cc(NC(=O)C3CCCCC3)ccc2O[C@@H](C)CCCCO[C@@H]1CN(C)C(=O)CCC(F)(F)F,0,-1,-0.9
C=CCCN1[C@@H](Cc2ccccc2)COc2ccccc2S1(=O)=O,-3,18,-0.3
Cc1ccc(S(=O)(=O)N(C)C[C@H]2OCCCC[C@H](C)Oc3ccc(NS(=O)(=O)c4cn(C)cn4)cc3C(=O)N([C@H](C)CO)C[C@@H]2C)cc1,-3,-4,0.7
C[C@H]1CN([C@@H](C)CO)S(=O)(=O)c2ccc(-c3cccc(C#N)c3)cc2O[C@@H]1CN(C)C,3,-1,-3.1
C[C@@H]1CN([C@@H](C)CO)C(=O)c2cc(NC(=O)CCC(F)(F)F)ccc2O[C@@H](C)CCCCO[C@H]1CN(C)CC1CCCCC1,2,5,0.4
CC(C)CC#Cc1ccc([C@H]2[C@H]3CN(C(=O)c4ccccn4)CC(=O)N3[C@H]2CO)cc1,7,-3,0.4
COc1ccc2c3c(n(C)c2c1)[C@H](CO)N(C(=O)c1ccc(F)cc1)CC31CCN(C(=O)Nc2ccc(F)cc2)CC1,-4,-4,-1.5
Cc1noc(C)c1NC(=O)N[C@H]1CC[C@@H](CC(=O)NCc2ccc(Cl)c(Cl)c2)O[C@@H]1CO,-1,2,-0.9
CN(C)C(=O)c1ccc(-c2ccc(C3[C@@H]4CN(Cc5cccnc5)C[C@H]3N4)cc2)cc1 (stereo partly specified),-2&0,0&2,1.1&-1.3
COc1ccccc1Cn1c(=S)[nH]c2cc(C(=O)N3CC(C)CC(C)C3)ccc2c1=O (stereo unspecified),2,-3,-2.7

# Four of the entries above in order of the rRNA inh HTS RFP value, smallest number first.
Compound	rRNA inh HTS	rRNA inh HTS OD600	rRNA inh HTS RFP
CO[C@H]1CN(C)C(=O)c2cc(NC(=O)NC3CCCCC3)ccc2OC[C@H](C)N(CC2CCOCC2)C[C@H]1C	1	-1	-1.5
CCOC(=O)C1(C)CCN1C(=O)COc1ccccc1 (stereo unspecified)	10	9	-1.4
C[C@@H]1CN([C@@H](C)CO)C(=O)c2cc(NC(=O)Nc3ccc(F)cc3)ccc2O[C@H]1CN(C)S(=O)(=O)c1ccccc1	-5	-5	-0.1
Cc1ccc(S(=O)(=O)Nc2ccc3c(c2)C(=O)N([C@@H](C)CO)C[C@@H](C)[C@H](CN(C)Cc2ccc(Oc4ccccc4)cc2)O3)cc1	0	-10	0.0

# Next part
SMILES,rRNA inh HTS,rRNA inh HTS OD600,rRNA inh HTS RFP
COc1ccc(C(=O)N2C[C@H]3[C@@H](c4ccccc42)[C@@H](CO)N3C(=O)Cc2ccccn2)cc1,1,5,-0.2
CO[C@H]1CN(C)C(=O)c2cc(NC(=O)Nc3ccccc3)ccc2OC[C@H](C)N(CC2CC2)C[C@@H]1C,-2,-12,-1.7
O=C(Nc1cc(F)ccc1F)N1CCCCN2[C@H](CO)[C@H](c3ccc(-c4cccnc4)cc3)[C@H]2C1,-1,6,1.0
Cc1ccc([C@H]2N[C@]3(CCCN(Cc4cccn4C)C3=O)[C@H]3C(=O)N(Cc4ccccc4)C(=O)[C@@H]23)cc1,-3,9,-2.0
O=C(C[C@H]1C[C@@H]2c3cc(NC(=O)Nc4ccccc4)ccc3O[C@@H]2[C@@H](CO)O1)NCC1CC1,-7,4,0.7
O=C(N[C@@H]1CC[C@H](CCn2cc(C3(O)CCCC3)nn2)O[C@H]1CO)c1ccccc1F,4,10,-0.6
CC(=O)Nc1cc2oc3ccccc3c2cc1[N+](=O)[O-],-8,6,-0.6
Cc1noc(C)c1NC(=O)N(C)C[C@H]1OCCCC[C@@H](C)Oc2ccc(NC(=O)c3ccccc3)cc2C(=O)N([C@@H](C)CO)C[C@H]1C,-3,-8,-2.6
O=C(O)C[C@H]1C[C@H]2c3cc(NC(=O)Nc4ccccc4F)ccc3O[C@H]2[C@H](CO)O1,4,8,-2.6
CN(C)CCCNC(=O)C[C@H]1CC[C@H]2[C@@H](COC[C@H](O)CN2C(=O)c2ccncc2)O1,2,2,-2.9
CCC(C(=O)NC(C)(C)C)n1c(C(c2ccccc2)c2ccccc2)nc2ccccc21 (stereo unspecified),-4,-4,1.5
C[C@@H]1CN([C@@H](C)CO)C(=O)c2cc(-c3cccnc3)cnc2O[C@@H]1CN(C)C,-1,-4,-3.1
CC(C)NC(=O)N1CC2(C1)[C@@H](c1ccccc1)[C@H](CO)N2C(=O)C1CC1,4,16,-4.0
COc1ccccc1S(=O)(=O)N[C@H]1C=C[C@H](CC(=O)N2CCCCC2)O[C@@H]1CO,-1,3,-4.8
O=S(=O)(Cc1nnnn1-c1ccc(Br)cc1)c1ccccc1,-5,1,-1.5
CN(C)CCCNC(=O)C[C@H]1CC[C@H](NC(=O)c2ccccc2F)[C@H](CO)O1,4,3,0.1
Cc1noc(C)c1NC(=O)Nc1ccc2c(c1)C(=O)N([C@@H](C)CO)C[C@H](C)[C@@H](CN(C)S(=O)(=O)c1cccs1)O2,3,18,1.2
CCc1nc2ccc(C(=O)N3CCC(O)(Cc4ccccc4)CC3)cn2c1N(C)C(=O)Cc1ccccc1,10,9,-0.2
O=C(NC1CCCCC1)N[C@H]1CC[C@H](CCNS(=O)(=O)c2ccc(F)cc2)O[C@H]1CO,2,0,-2.0
C[C@@H]1CN([C@H](C)CO)C(=O)c2cc(C3=CCCCC3)cnc2O[C@@H]1CN(C)S(=O)(=O)c1cn(C)cn1,5,9,-3.5
CNC[C@H]1Oc2ccc(NS(=O)(=O)c3ccc(Cl)cc3)cc2CC(=O)N([C@@H](C)CO)C[C@H]1C,2,7,-1.0
Cc1noc(C)c1S(=O)(=O)Nc1ccc2c(c1)C(=O)N([C@H](C)CO)C[C@@H](C)[C@@H](CN(C)S(=O)(=O)c1ccc(F)cc1)O2,-3,-5,-2.1
Cc1noc(C)c1NC(=O)Nc1ccc2c(c1)C(=O)N([C@H](C)CO)C[C@@H](C)[C@H](CN(C)S(=O)(=O)c1c(C)noc1C)OCCCC[C@@H](C)O2,0,5,-2.3
CCCNC(=O)Nc1ccc2c(c1)C(=O)N(C)C[C@@H](OC)[C@@H](C)CN(Cc1ccccn1)[C@H](C)CO2,1,4,-1.1
CS(=O)(=O)N(CC(=O)N1CCCC1)c1ccc(F)cc1,10,-4,1.9
Cc1noc(C)c1NC(=O)N(C)C[C@@H]1OCCCC[C@@H](C)Oc2ccc(NC(=O)CCCCCC(=O)Nc3ccccc3N)cc2C(=O)N([C@H](C)CO)C[C@@H]1C,-1,5,-3.7

# In the list so far, five contain a Cl atom.
SMILES,rRNA inh HTS,rRNA inh HTS OD600,rRNA inh HTS RFP
CNc1nc(NCCOc2ccccc2Cl)c2sccc2n1,-64,-81,-23
O=C(c1ccc2c(c1)OCO2)N1C[C@H]2[C@@H](c3ccccc31)[C@H](CO)N2Cc1ccccc1Cl,-11,-42,13
CCCCN(C)C(=O)c1sc(=O)n(Cc2cc(Cl)ccc2OC)c1C,-23,-24,-3.6
Cc1noc(C)c1NC(=O)N[C@H]1CC[C@@H](CC(=O)NCc2ccc(Cl)c(Cl)c2)O[C@@H]1CO,-1,2,-0.9
CNC[C@H]1Oc2ccc(NS(=O)(=O)c3ccc(Cl)cc3)cc2CC(=O)N([C@@H](C)CO)C[C@H]1C,2,7,-1.0
